High-throughput results (PubChem)
2A StopGo: lowers the luciferase signal of an FMDV 2A StopGo reporter. human cells with a luciferase reporter of 2A StopGo recoding; control for the full effect not named in the record. Potency, µM (titrated, usually from 57.9 µM), without a hit: top-dose signal change, negative = less light. 410,000 compounds, 1.2% hits; active = well fitted falling curve with a large enough effect; inconclusive = small, poorly fitted or top-dose-only effect; inactive = no such curve, though single readings can be large or run the other way; tested in HEK293T cells; further: on the % scale 0 is the no-effect control and ±100 the full control effect; nearly all actives have a fitted effect of over 45% in size; luciferase light after 4 h
RE007 growth inh: less growth of the S. pombe RE007 Vpr strain. AID 651644. S. pombe RE007 Vpr strain, BacTiter-Glo ATP luminescence, 24 h; control for the full effect not named in the record. 360,000 compounds, 0.21% hits. Potency, µM (doses to about 92.2 µM), inactives show at the top dose activity change, negative = less growth; active = well fitted falling curve with a large enough effect; inconclusive = small, poorly fitted or top-dose-only effect; inactive = no such curve, though single readings can be large or run the other way;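 further: on the % scale 0 is the no-effect control and ±100 the full control effect; nearly all actives have a fitted effect of over 50% in size; the assay follows cell death caused by Vpr and the record does not say whether a fall means rescue or toxicity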
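Fission yeast strain RE007, carrying one chromosomally integrated HIV-1 vpr copy, was seeded at OD 0.01 in PMG+AL medium with 23 nL pinned compound. After 24 h at 30 °C and 99% humidity, viability was read by BacTiter-Glo luminescence.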
SARS PLpro yeast: blocks SARS-CoV papain-like protease in a yeast assay; S. cerevisiae expressing SARS-CoV PLpro, growth rescue; control for the full effect not named in the record; Potency, µM (top dose mostly 32.9 µM), without a hit: at the highest dose activity, positive = growth rescue; 330,000 compounds, 0.19% hits; active means well fitted rising curve with a large enough effect; inconclusive means small, poorly fitted or top-dose-only effect; inactive means no such curve, though single readings can be large or run the other way; further: 0% is about no effect; nearly all actives have a fitted effect of over 55% in size; growth read by luminescence after 48 h
* = called active by the depositor; ? = inconclusive; & = joins results of further samples; [ ] = dose if it differs, or a comment. Potency means the concentration at half of the fitted maximal effect. An excerpt; count on the stated rates, not on these rows.

SMILES	2A StopGo	RE007 growth inh	SARS PLpro yeast
Cc1ccc(NC(=O)COC(=O)c2c(-c3ccccc3)noc2C)cc1	-25.7%	1.7%	-9.3%
Cc1ccc(OCCC(=O)OCC(=O)c2c(N)n(CC(C)C)c(=O)n(C)c2=O)cc1	?	10.7%	-3.9%
C[C@@H](CSc1ccc(Br)cc1)CN1CC[C@H](NC(=O)OCc2ccccc2)CCC1=O	25.1µM*	-7.0%	-4.5%
O=C(CN1C(=O)NC(Cc2c[nH]c3ccccc23)C1=O)Nc1ccc(Br)cc1F (configuration not stated)	-4.0%	0.3%	-21.5%
O=C(COC(=O)/C=C/c1cccc([N+](=O)[O-])c1)NCc1ccco1	-3.8%	-15.3%	-0.6%
CC(C)n1ncc2c(C(=O)Nc3ccc(S(C)(=O)=O)cc3)cc(C3CC3)nc21	0.0%	-1.5%	-16.1%
COc1ccc(S(=O)(=O)Nc2cc(S(=O)(=O)N3CCOCC3)ccc2OC)cc1	0.3%	-4.8%	-2.7%
CC[C@@]1(C(=O)OC)N[C@H](CN(C)C(=O)Nc2ccc(F)cc2)[C@@H]2C(=O)N(C)C(=O)[C@@H]21	-1.0%	-8.8%	1.8%
COc1cccc(NC(=O)COc2ccc3c(c2)CCC3)c1	42.1%[activator]	-10.1%	-1.3%
COc1ccc(C(=O)c2c(-c3ccc(OC)cc3)oc3ccccc23)cc1	0.0%	-19.3%	-11.3%
COc1cccc(CCC(=O)Nc2cccc(S(=O)(=O)N3CCCC3)c2)c1OC	-10.0%	-6.6%	3.4%
COc1cc2c(C#CCCO)c(-c3ccsc3)oc(=O)c2cc1OC	-27.8%	6.3%	4.5%
O=C(OCC(=O)N1CCCC1)c1cc(=O)c2ccccc2o1	-11.6%	-7.3%	4.6%
CC1CCN(C(=O)COC(=O)/C=C/c2ccc(Br)o2)CC1	0.8%	-13.7%	5.0%
CCOc1cnc(C(=O)NNC(=O)C(Br)C(C)C)o1 (configuration not stated)	-16.5%	2.7%	2.9%
CC1CCCC(C)N1C(=O)COC(=O)C12CC3CC(CC(Cl)(C3)C1)C2 (configuration not stated)	-16.8%	19.2%	-5.1%
C[C@H]1CCC[C@]2(CC(=O)c3cc(F)ccc3O2)C1	-16.4%	-1.8%	-9.9%
Cc1cnc(C(=O)OCC(=O)c2ccc(C)s2)cn1	-6.3%	-2.8%	-8.8%
COC(=O)C1CCN(C(=O)COC(=O)c2ccc(N3CCCC3=O)cc2)CC1	1.1%	1.7%	1.2%
CN(CC(=O)Nc1ccc(Cl)c(Cl)c1)CC(=O)Nc1ccc2c(c1)OCO2	-17.3%	1.9%	-3.7%
CCCn1c(N)c(N(CCOC)C(=O)c2cc3ccccc3cc2OC)c(=O)[nH]c1=O	-19.1%	-0.4%	2.8%
O=C(NCc1ccccc1)c1nncc(-c2ccccc2)n1	17.8%	-10.4%	2.4%
CCC(=N\NC(=O)COc1ccccc1OC)/C(CC)=N/NC(=O)COc1ccccc1OC	?	22.8%	-6.5%
CCc1cc2c(SCC(=O)Nc3ccc(NC(C)=O)cc3)ncnc2s1	-8.3%	-8.6%	-3.0%
O=C(O)c1cc(-c2cccnc2)nc2ccc(Br)cc12	5.3%	-6.5%	0.9%
COc1ccc(C(=O)c2c3ccccc3[n+]([O-])n2CCCN)cc1	-2.6%&46.1%	-8.3%&-5.7%	0.7%
CC(=O)c1ccc(OCCCC(=O)OCC(=O)Nc2c(C)nn(-c3ccccc3)c2C)cc1	-2.9%	-12.6%	-4.8%
O=C(Cn1cnc2ccccc21)Nc1cccc([N+](=O)[O-])c1	-27.5%	-24.7%	-0.5%
CN(C(=O)COC(=O)Cn1cnc2c1c(=O)n(C)c(=O)n2C)C1(C#N)CCCCC1	-26.0%	6.2%	-1.7%
O=C(Nc1cccnc1Cl)c1noc2c1CCc1ccccc1-2	37.7%[activator]	0.4%	-0.1%
O=C(NCCC1=CCCCC1)C1CCN(S(=O)(=O)N2CCCC2)CC1	-4.4%	8.4%	-3.8%
COc1ccc(OC)c(CCNC(=O)CSc2ccsc2[N+](=O)[O-])c1	-5.2%	-4.2%	-2.0%
CC(CCC(C)C(C)(C)C)[C@@H]1CC[C@H]2C3C[C@H](OS(O)(=S)=S)[C@H]4C[C@H](OS(O)(=S)=S)[C@@H](OS(O)(=S)=S)C[C@]4(C)[C@H]3CC[C@]12C (some centres not stated) (tested in a mixture with another compound)	-28.0%	?	-22.4%&-23.0%
NC(=S)Cc1nc(-c2ccc(Cl)cc2)cs1	-15.1%	-4.5%	-3.4%
CSc1ccc(S(=O)(=O)N(CC(=O)NN=C2CCN(C)CC2)c2ccc(C)cc2)cc1	-3.9%	-6.4%	-6.0%
CCc1ccc(OCC(=O)NNC(=O)c2cc(S(=O)(=O)N3CCOCC3)ccc2N2CCCC2)cc1	-1.6%	5.9%	-3.3%
Cc1noc(C)c1C(=O)OCC(=O)N(C)C1(C#N)CCCCC1	12.2%	-29.3%	1.0%
COC(=O)C1=C(c2c(C)noc2C)C[C@@H]2CC[C@H]1N2C(=O)NCc1ccc2c(c1)OCO2	-16.7%	-0.3%	2.2%
Cc1ccc(S(=O)(=O)CCC(=O)Nc2ccccc2N2CCCC2)cc1	-24.8%	-10.0%	-8.4%
CC(C)C(NC(=O)CCNC(=O)c1ccccc1Cl)c1nc2ccccc2[nH]1 (configuration not stated)	2.6%	-11.2%	-1.7%
O=C(NS(=O)(=O)N1CCOCC1)C1=C(N2CCCC2)COC1=O	-5.8%	-8.0%	3.55µM*
O=C(Nc1ccccc1C(=O)Nc1ccc(Br)cn1)c1ccccc1Cl	-22.4%	-13.3%	-12.4%
O=C(C[C@@H]1C/C=C\CC[C@@H](Cc2ccc(F)cc2)C(=O)OC[C@@H]2CCCN2C1=O)N[C@H](CO)Cc1ccccc1	-27.2%	2.6%	1.9%
COc1cccc2c1C(=O)C[C@]1(CCCC[C@@H]1C)O2	-13.2%	-15.3%	-0.8%
O=C(Cc1cccs1)N/N=C\c1ccc(O)cc1	59.5%[activator]	7.7%	0.5%
Cc1ccsc1C(=O)OCC(=O)N1C(C)CCCC1C (configuration not stated)	36.2%[activator]	-25.1%	9.3%
COCCCN(C(=O)c1ccc2ccccc2n1)c1c(N)n(Cc2ccccc2)c(=O)[nH]c1=O	46.1%[activator]	-5.6%	-4.6%
CCOc1ccc(Oc2ccccc2NS(=O)(=O)c2ccc(CCC(=O)O)cc2)cc1	?	-5.8%	-2.0%
COc1ccc(N2CCN(C(=O)COC(=O)c3c(-c4ccccc4)noc3C)CC2)cc1	-20.0%	-7.2%	-6.5%
COc1ccc2c(c1)OC[C@H]1[C@H]2N2C(=O)CNC(=O)[C@@]2(C)[C@H]1c1ccccc1	-10.8%	-1.4%	-5.6%
Additional entries follow:
SMILES	2A StopGo	RE007 growth inh	SARS PLpro yeast
CCN(CC)c1ccc(S(=O)(=O)N2CCCCC2)cc1NC(=O)C1CSC2(C)CCC(=O)N12 (configuration not stated)	-19.4%	-2.9%	1.9%
C/C(=N\NS(=O)(=O)c1ccc([N+](=O)[O-])cc1)c1cccs1	21.1%	-10.0%	-5.0%
CCOc1ccc(C(=O)CCC(=O)N2CCN(c3ccc(O)cc3)CC2)cc1	?	21.9%	-2.8%
COCc1c(C(=O)NCCc2ccc(OC(F)F)cc2)oc2ccccc12	?	-8.0%	-12.3%
COC(=O)C1=C(c2cccc(OCc3ccccc3)c2)C[C@@H]2CC[C@H]1N2C(=O)NC1CCN(Cc2ccccc2)CC1	?	-20.1%	-0.9%
O=C(COC(=O)c1nc(Cl)ccc1Cl)Nc1ccc(Cl)cn1	4.1%	-9.9%	-6.6%
CCOc1ccc(-c2nc(CCl)cs2)cc1	-16.8%	6.7%	-1.2%
O=C(COC(=O)c1ccc2ccccc2n1)Nc1ccccc1F	-12.1%	2.5%	-7.5%
COc1ccc(-c2sc3ccc(N4CCOCC4)cc3c2C#Cc2ccsc2)cc1	-2.6%	-3.9%	-0.7%
COc1ccc([C@@H]2CC=C(C(=O)O)[C@H](c3ccc(C)cc3)N2S(=O)(=O)c2ccc(C)cc2)cc1OC	20.1%	1.3%	3.9%
CN1CCN(c2ccc(Cl)cc2NC(=O)c2cc(=O)[nH]c3ccccc23)CC1	0.0%	-12.2%	-4.2%
CC1Cc2ccccc2N1C(=O)COC(=O)/C=C/c1cccc(F)c1 (configuration not stated)	?	-14.0%	-8.3%
Cc1sc2nc(CSCC(=O)NC3(C#N)CCCCC3)[nH]c(=O)c2c1C	-15.3%	9.0%	2.6%
Cc1ccc([C@@H]2CC=C(C(=O)O)[C@H](c3ccc(Br)cc3)N2S(=O)(=O)c2ccccc2C)cc1	-23.6%	3.2%	-11.6%
NC(=O)c1ccc(NC(=O)COC(=O)C2(c3ccccc3F)CCCC2)cc1	?	-4.3%	0.3%
O=C1C=C(c2ccccc2)C[C@@H](c2ccc(Cl)cc2)C1	0.0%	-10.6%	4.7%
C[C@@H]1CN([C@@H](C)CO)C(=O)Cc2cc(NC(=O)Nc3ccc(C(F)(F)F)cc3)ccc2O[C@@H]1CN(C)S(=O)(=O)c1ccc(Cl)cc1	?	-0.6%	-12.4%
COc1ccc(CN2CC(=O)N3[C@H]4c5cc(C)ccc5OC[C@@H]4[C@H](c4ccccc4)[C@]3(C)C2=O)cc1	?	-2.1%	5.4%
CCN(C[C@H]1N[C@@](C)(C(=O)OC)[C@H]2C(=O)N(C)C(=O)[C@@H]12)S(=O)(=O)c1ccc(F)cc1	-13.4%	11.8%	-3.2%
CC(C)CC(NC(=O)C1CCC(C)CC1)C(=O)NCc1ccco1 (configuration not stated)	19.9%	2.2%	-0.5%
COc1ccc2c(-c3ccc(SC)cc3)c(-c3ccc(S(C)(=O)=O)cc3)sc2c1	-13.9%	11.5%	4.1%
CC1CCCC(C)N1C(=O)CSc1nnc(-c2ccco2)n1C (configuration not stated)	-14.4%	-3.6%	-6.8%
O=C(Cn1cnc2ccccc21)N/N=C/c1ccccc1	-15.2%	-7.8%	-0.4%
N#CCCn1cc(/C=N/NC(N)=S)c(-c2ccc(-c3ccccc3)cc2)n1	-28.6%	3.8%	5.4%
Cc1ccc(Cl)cc1NC(=O)C(=O)N1CCCCC1	0.1%	-9.3%	1.0%
CCN(C1=NS(=O)(=O)c2ccccc21)N(CC)S(=O)(=O)c1ccc(C)cc1	?	-1.3%	-0.2%
Cc1ccc(CNC(=O)C2CC3Cn4c(nc5ccccc54)C3N2C)o1 (configuration not stated)	-11.7%	-7.3%	4.3%

By substructure, the entries above with a thiophene ring, fused or not (10)
SMILES	2A StopGo	RE007 growth inh	SARS PLpro yeast
COc1cc2c(C#CCCO)c(-c3ccsc3)oc(=O)c2cc1OC	-27.8%	6.3%	4.5%
Cc1cnc(C(=O)OCC(=O)c2ccc(C)s2)cn1	-6.3%	-2.8%	-8.8%
CCc1cc2c(SCC(=O)Nc3ccc(NC(C)=O)cc3)ncnc2s1	-8.3%	-8.6%	-3.0%
COc1ccc(OC)c(CCNC(=O)CSc2ccsc2[N+](=O)[O-])c1	-5.2%	-4.2%	-2.0%
O=C(Cc1cccs1)N/N=C\c1ccc(O)cc1	59.5%[activator]	7.7%	0.5%
Cc1ccsc1C(=O)OCC(=O)N1C(C)CCCC1C (configuration not stated)	36.2%[activator]	-25.1%	9.3%
C/C(=N\NS(=O)(=O)c1ccc([N+](=O)[O-])cc1)c1cccs1	21.1%	-10.0%	-5.0%
COc1ccc(-c2sc3ccc(N4CCOCC4)cc3c2C#Cc2ccsc2)cc1	-2.6%	-3.9%	-0.7%
Cc1sc2nc(CSCC(=O)NC3(C#N)CCCCC3)[nH]c(=O)c2c1C	-15.3%	9.0%	2.6%
COc1ccc2c(-c3ccc(SC)cc3)c(-c3ccc(S(C)(=O)=O)cc3)sc2c1	-13.9%	11.5%	4.1%
